From PubChem
Mtb H37Rv: M. tuberculosis H37Rv growth inhibitors, H37Rv strain (AID 1626). M. tuberculosis H37Rv growth inhibition; higher % means a stronger effect. inhibition, % at 10 µM; hits with a dose series show IC50 in µM. actives 0.95% (n = 220,000);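 active = confirmed in a dose series; inconclusive = inhibition above 80% but not taken into the dose series; inactive = below 80% or under 30% at every dose of the series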;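 note: bacteria incubated seven days before Alamar blue readout; 0% = bacteria only wells and 100% = bacteria with antibiotic wells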
YopH inh: inhibitors of Yersinia enterocolitica YopH tyrosine phosphatase; fluorescence Ex485/Em525; inhibition, %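 (about 10 µM by stock and volumes)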; actives 0.16% (n = 140,000); AID 898;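 active = inhibition of 50% or more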;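 note: controls were vehicle for no effect and minimum signal wells for full effect; inactives centre near -20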
Mtb bLac sens: beta-lactam sensitization of Mtb H37Rv | inhibition, % at 25 µM | M. tuberculosis H37Rv growth with meropenem, percent inhibition; hits of this screen are not shown here | actives 0.27% (n = 330,000);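 active = about 74% or more and at least 40 points above the plate without the antibiotic, then above 30% in a dose series; inconclusive = first-round hits that could not be retested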;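 note: growth measured after seven days incubation then overnight dye step; 0% = bacteria only wells and 100% = bacteria with antibiotic; twin plates without the antibiotic show which effects depend on it; some results filed as inactive read as strong as hits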
Arbovirus anti: blocks arbovirus infection; inhibition, % at 10 µM; arbovirus infection cell-based antiviral screen; actives 0.37% (n = 200,000);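 active = inhibition from about 30%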;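 note: bluetongue infection of BSR cells; cell survival read as ATP light after 72 h; 0% = infected wells without compound and 100% = uninfected wells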
RecA intein inh: inhibitors of M. tuberculosis RecA intein splicing; cell-free RecA intein splicing, fluorescence; actives 0.75% (n = 290,000); P9WHJ3; inhibition, %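 (about 9 µM by stock and volumes)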; in the data active = inhibition above about 30%; inconclusive = no clear call, values can overlap the other calls;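 note: 0% = vehicle wells and 100% = reference inhibitor control wells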
Target sequence (P9WHJ3 whole entry, looked up): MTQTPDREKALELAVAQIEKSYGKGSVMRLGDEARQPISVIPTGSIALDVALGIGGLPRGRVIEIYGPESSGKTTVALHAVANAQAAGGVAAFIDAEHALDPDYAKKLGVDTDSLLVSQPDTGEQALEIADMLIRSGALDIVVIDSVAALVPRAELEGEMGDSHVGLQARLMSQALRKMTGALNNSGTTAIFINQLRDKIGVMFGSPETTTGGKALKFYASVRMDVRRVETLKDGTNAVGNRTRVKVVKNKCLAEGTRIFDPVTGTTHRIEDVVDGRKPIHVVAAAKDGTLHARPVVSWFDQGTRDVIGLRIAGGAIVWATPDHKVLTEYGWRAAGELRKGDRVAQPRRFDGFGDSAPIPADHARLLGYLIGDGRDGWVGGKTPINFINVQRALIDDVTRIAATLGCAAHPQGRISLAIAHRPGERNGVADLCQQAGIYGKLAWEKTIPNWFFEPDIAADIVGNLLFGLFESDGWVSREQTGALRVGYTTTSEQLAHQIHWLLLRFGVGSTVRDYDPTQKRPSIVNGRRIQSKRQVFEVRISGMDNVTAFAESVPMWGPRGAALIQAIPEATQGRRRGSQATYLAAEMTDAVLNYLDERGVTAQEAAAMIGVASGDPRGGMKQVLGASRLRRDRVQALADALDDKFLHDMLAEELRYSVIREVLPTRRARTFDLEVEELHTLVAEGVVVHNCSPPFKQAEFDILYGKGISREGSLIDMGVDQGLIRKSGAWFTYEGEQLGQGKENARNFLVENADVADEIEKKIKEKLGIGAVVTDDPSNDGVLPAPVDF
Arbovirus anti repeat: further read-out of Arbovirus anti, marked with its call; inhibition, %; measured here: 10K subset replicate screen; many hits read low in the repeat;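 first of two repeat runs on a subset; 0% = infected and 100% = uninfected wells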
Starred values were filed as active, the others as inactive; ? = inconclusive; / = no result given.

The first 5 entries, ahead of the listing:
SMILES	Mtb H37Rv	YopH inh	Mtb bLac sens	Arbovirus anti	RecA intein inh	others
CC(C)OC(=O)CSc1nnc(-c2ccc(Cl)cc2Cl)n1N	-13%	17	1	6	/
NC(=O)c1nsc(C(=O)N(c2cccc(F)c2)C(C(=O)NCC2CCCO2)c2cccs2)c1N (stereo not given)	16%	/	3	3	-2.7
CCCc1cc(=O)oc2cc(OCC(=O)NCC3CCC(C(=O)O)CC3)ccc12 (stereo not given)	/	/	-3	/	-1.9
CC[n+]1c(C)cc2c(sc3ccccc32)c1C	4%	/	/	5	/
COc1ccc(N2CCN(CC(=O)c3ccc(O)c(C)c3O)CC2)cc1	/	/	-1	/	0.0

Main list, previewed entries included:
SMILES	Mtb H37Rv	YopH inh	Mtb bLac sens	Arbovirus anti	RecA intein inh	others
CC(C)OC(=O)CSc1nnc(-c2ccc(Cl)cc2Cl)n1N	-13%	17	1	6	/
NC(=O)c1nsc(C(=O)N(c2cccc(F)c2)C(C(=O)NCC2CCCO2)c2cccs2)c1N (stereo not given)	16%	/	3	3	-2.7
CCCc1cc(=O)oc2cc(OCC(=O)NCC3CCC(C(=O)O)CC3)ccc12 (stereo not given)	/	/	-3	/	-1.9
CC[n+]1c(C)cc2c(sc3ccccc32)c1C	4%	/	/	5	/
COc1ccc(N2CCN(CC(=O)c3ccc(O)c(C)c3O)CC2)cc1	/	/	-1	/	0.0
CCOc1cc(/C=C(/NC(C)=O)C(=O)O)cc(Cl)c1OCc1cccc(Br)c1	/	/	-5	/	4.6
Cc1cccc(Cl)c1NC(=S)NCCc1ccccn1	-9%	/	0	/	-0.9
COc1ccc(C(=O)NC(=S)Nc2cccnc2)cc1Cl	/	/	5	/	3.5
C/C(N)=C(/C#N)C(=O)COC(=O)Cc1coc2ccc3ccccc3c12	5%	/	-13	12	4.3
CC1(C)CC(=O)C(C=NCCN2CCOCC2)=C(O)C1	3%	-18	13	4	0.3
COC(=O)/C(C#N)=C/c1c(Oc2cccc(C)c2C)nc2ccccn2c1=O	-5%	/	0	/	0.5
COC(=O)c1cc2sccc2n1Cc1ccc(C)cc1	10%	-13	5	15	8.9
CCOC(CCNC(=O)c1cc(-c2cccs2)nc2ccccc12)OCC	/	/	2	/	0.5
CC1=CCC(Cc2nc3ccccc3o2)C1(C)C (stereo not given)	-4%	-17	-5	-4	-0.6
CN(C)c1ccc(P(=O)(OC2CCCCC2)C(O)c2ccncc2)cc1 (stereo not given)	-1%	/	-3	/	/
CCNC(=O)COC(=O)C1CCN(S(=O)(=O)c2ccc3c(c2)OCCO3)CC1	/	/	0	/	-1.1
COc1cc(C(=O)NCCNC(=O)c2cc(OC)c(C)c(OC)c2)cc(OC)c1C	/	/	0	/	-0.7
Cc1ccc(CCNC(=O)CS(=O)Cc2nc(-c3cccs3)oc2C)cc1 (stereo not given)	4%	/	-8	/	1.5
Cc1nnc(N/N=C/C2CC=CCC2)[nH]c1=O (stereo not given)	-2%	/	-1	0	-3.4
CCCCOc1cccc(/C=C(\C#N)C(=O)NC2CC2)c1	/	/	-1	/	-1.3
O=C(Nc1ccc(F)cc1F)Nc1csc2ccccc12	<0.39µM*	/	100	/	1.4
Cc1cccc(C(=O)Nc2ccc(S(=O)(=O)Nc3nc(C)cc(C)n3)cc2)c1	/	/	-2	/	-0.5
Cc1[nH]c2ccccc2c1C(=O)CN1CCCC1	-6%	-39	8	-1	0.7
CNC(=O)NC(=O)COC(=O)/C=C/c1cccc(Br)c1	7%	/	4	20	-1.5
O=C1c2ccccc2C(=O)C1c1nccc2ccccc12	9%	-29	57	-18	-0.1
CSc1cc(-c2ccc(Cl)cc2)c(C(=O)N2CCCC2)s1	14%	3	-1	3	11
CSc1ccccc1C(=O)N1CCC(CCC(=O)NC2CC2)CC1	/	/	-5	/	-1.3
CCOP(=O)(OCC)C(NC(C)=O)C(=O)c1ccccc1 (stereo not given)	0%	/	-9	7	-1.4
COc1ccc(-c2cn[nH]c2-c2ccc(OCC(=O)NN)cc2O)cc1OC	/	/	11	/	-2.9
COc1ccc(N2CCN(C(=O)CCNC(=O)c3ccc(C(C)(C)C)cc3)CC2)cc1	10%	/	24	7	-0.5
CCC(C)[C@H](NC(=O)[C@@H]1Cc2c([nH]c3ccccc23)C2c3ccccc3C(=O)N21)C(=O)N1CCC[C@@H]1C(=O)O (stereo not given in full)	/	/	-8	/	-2.2
Cn1c(=O)c2c(nc(N3CCCCC3)n2CCNC2=NCCC2)n(C)c1=O	-9%	-33	9	6	-2.5
Cc1ccc(NC(=O)CN2C(=O)COc3ccc(S(=O)(=O)N4CCCC4)cc32)cc1C	/	/	7	/	-1.7
CCOC(=O)CNC(=O)CSc1nc(N)cc(N)n1	-6%	-21	-2	2	-5.0
CCN(CC)c1ccc(-c2n[nH]c(=S)n2-c2ccccc2C)cc1	9%	/	5	13	-0.6
O=C(c1ccc2c(c1)OCCO2)C1CCN(C(=O)Nc2ccccc2F)CC1	/	/	-6	/	0.2
OC(CN1CCN(c2ccccc2F)CC1)c1ccc(F)cc1 (stereo not given)	/	/	8	/	-3.5
Cn1c(CN2CCCCC2)nc2cc(NC(=O)c3ccccc3)ccc21	1%	-18	-5	-13	0.2
CN(C1=NC(=O)C(CC(=O)O)S1)c1ccc(O)cc1 (stereo not given)	3%	/	0	16	-0.2
CCOc1ccc(NC(=O)CCCOc2cc(=O)n(C)c3ccccc23)cc1	2%	11	-9	-4	-1.8
CC(C)NC(=O)c1ccccc1NC(=O)C1COc2ccccc2O1 (stereo not given)	-1%	25	-8	1	/
CC(=O)Nc1ccc(C(C#N)c2ccccc2)cc1 (stereo not given)	0%	/	3	-6	/
CCCCOC(=O)c1ccc(NC(c2ccc(C)cc2)P(=O)(OC)OC)cc1 (stereo not given)	13%	-6	-1	-17	7.8
CCCS(=O)(=O)N1CCC(C(=O)N2CCCC2)CC1	9%	-23	-1	8	3.5
Nc1ccc(-c2cc(N)n(-c3ccccc3)n2)cc1	-2%	-36	-5	-6	3.9
CSCCC(NC(=O)c1ccco1)C(=O)N1CCN(Cc2ccccc2)CC1 (stereo not given)	/	/	-1	/	-6.9
COc1ccc(N2C(=O)c3ccc(C(=O)Nc4cc(OC)ccc4OC)cc3C2=O)cc1	/	/	0	/	0.0
Cc1cccc(N2CCN(C(=O)c3cccc(N4CCCC4=O)c3)C(C)C2)c1 (stereo not given)	/	/	-11	/	3.6
CCCC(=O)Nc1ccc(NC(=O)Cc2ccccc2)cn1	-1%	6	3	1	0.7
CCOC(=O)c1c(C)c(-c2ccccc2)n(CC(=O)NCCC(C)C)c1C	0%	-19	6	0	0.8
CC(C)Cn1c(N)c(C(=O)COC(=O)c2ccc(Cl)cc2)c(=O)n(C)c1=O	11%	/	0	7	5.8
CN(NC1OC(=O)c2ccccc21)c1ccc(Cl)cc1[N+](=O)[O-] (stereo not given)	-9%	/	0	/	0.1
Fc1cccc(NCc2ccoc2)c1	-3%	-50	-2	1	1.8
O=C(NCc1ccco1)Nc1ccc2nsnc2c1	-9%	-14	-5	-10	-6.3
O=C(c1ccc(Cn2cc(Cl)cn2)cc1)N1CCN(c2ccccc2)CC1	2%	1	10	1	4.4
COC(CNC(=O)c1c[nH]c2ccc(S(=O)(=O)N3CCOCC3)cc2c1=O)OC	/	/	3	/	1.1
CCCCCC[C@@H]([C@@H](C)O)n1cnc2c(N)ncnc21	-9%	/	-2	/	1.1
CCn1cnc2c1c(=O)n(Cc1cccc(Br)c1)c(=O)n2Cc1ccccc1	/	/	9	/	16
CSc1ncccc1C(=O)OCC(=O)c1cccs1	-1%	/	3	1	-0.5
O=[N+]([O-])c1c(Nc2ccccc2O)cc(Cl)c2nonc12	/	/	10	/	96*

Additional entries
SMILES	Mtb H37Rv	YopH inh	Mtb bLac sens	Arbovirus anti	RecA intein inh	others
COc1ccc(S(=O)(=O)CCC(=O)Nc2ccc(OC)cc2OC)cc1	-7%	-19	-1	0	-2.5
CC(=O)c1ccc(NC(=O)CSc2nnc(Cn3cnc4ccccc43)o2)cc1	-1%	/	-17	10	3.8
COCC(=O)Nc1ccc(OC)c(Cl)c1	63%	/	77	2	0.0
OC(CNC1CCCC1)COc1ccc(-c2ccccc2)cc1 (stereo not given)	11%	/	11	-20	-3.1
COc1ccc(C)cc1NC(=O)c1cc2c(s1)CCC2	13%	-51	91	15	5.5
O=C(COC(=O)Cc1ccc2c(c1)OCCO2)Nc1ccc(S(=O)(=O)N2CCCC2)cc1	-5%	-3	9	9	-1.1
COc1ccc(C(=O)NC2CCCc3c2cnn3-c2ccccc2F)o1 (stereo not given)	/	/	-2	/	3.1
Cc1ccnc(NC(=O)Cc2ccc([N+](=O)[O-])cc2)c1	6%	/	-4	0	1.7
CCN(CC(=O)Nc1c(F)cccc1F)C(=O)CCNS(=O)(=O)c1ccccc1C(F)(F)F	/	/	-4	/	-1.4
COCCNc1oc(COc2cccc(C)c2)nc1C#N	12%	2	5	6	/
CCOC(=O)c1c(C)[nH]c(C)c1C(=O)COC(=O)[C@@H]1CCCN1S(=O)(=O)c1ccc(Cl)cc1	-7%	-22	-4	-3	5.3
CCC1(CC)NC(=O)N(CC(=O)NCc2ccc3c(c2)OCO3)C1=O	3%	-9	-2	8	-1.2
Cc1cc(C)c(S(=O)(=O)c2cccc(Cl)c2)c(=O)[nH]1	/	/	2	/	0.4
COC(=O)c1c(S(C)(=O)=O)nc(-c2ccccc2)[nH]c1=O	-1%	-28	57	2	-0.2
Cc1cc(Cl)ccc1NC(=S)N(CCCN1CCOCC1)Cc1cccs1	6%	-18	6	4	-3.1
CC(=O)Oc1cccc(N2C(=O)C3C4C=CC(CC4)C3C2=O)c1 (stereo not given)	/	/	8	/	3.5
CN1CCc2c(c3ccccc3n2Cc2ccccc2)C1	8%	-32	5	-8	0.2	Arbovirus anti repeat=-14
CC(=O)c1c(Cl)nc2cccc3c2c1-c1ccccc1C3=O	/	/	-4	/	33*
CC[C@@]12C(=O)N(c3ccc(OC)cc3)C(=O)N1[C@H](c1ccc(Cl)cc1)[C@@H]1C(=O)N(C3CCCCC3)C(=O)[C@@H]12	/	/	64	/	-2.7
O=C(Nc1ccc(F)cc1)Nc1ccc(Oc2ncnc3cc(Cl)ccc23)nc1	-6%	/	-3	/	-3.1
O=C(c1cc2c(s1)CCC2)N1CCN(c2ccccc2)CC1	-9%	6	-2	-3	6.7
CCCCC1=CC2=CC(=O)C(C)(OC(=O)CC)C(=O)C2=CN1C1CCCC1 (stereo not given)	-5%	/	-8	/	-3.2
COc1ccc(N2CCN(CCC(=O)c3ccc4ccccc4c3)CC2)cc1	/	/	62	/	6.8
CC(=O)c1ccc(N2CCN(S(=O)(=O)c3c(C(=O)N4CCCCC4)c(C)n(C)c3C)CC2)cc1	/	/	-2	/	1.2
COc1ccccc1N1CCN(CC(=O)Nc2nc(C)c(C(=O)N(C)C)s2)CC1	/	/	1	/	-0.5
CC1CCC(NC(=O)C2CC(=O)N(c3ccc4c(c3)OCCO4)C2)CC1 (stereo not given)	1%	/	-5	2	/
O=C(CSc1ncnc2c1cnn2CCO)Nc1cccc(C(F)(F)F)c1	-2%	-39	-2	4	-1.4
Cc1cc(C(=O)C(C)OC(=O)C2=NNC(=O)CC2)c(C)n1-c1ccc(OC(F)F)cc1 (stereo not given)	0%	-16	-10	3	0.0
CCCN1CCN(C(=O)CCCNC(=O)c2ccc(Cl)cc2)CC1	/	/	0	/	0.3
COC(=O)c1ccccc1NC(=O)c1ccc(F)cc1	-3%	/	-3	/	-3.0

In the list so far, two contain a CF3 group.
SMILES	Mtb H37Rv	YopH inh	Mtb bLac sens	Arbovirus anti	RecA intein inh	others
CCN(CC(=O)Nc1c(F)cccc1F)C(=O)CCNS(=O)(=O)c1ccccc1C(F)(F)F	/	/	-4	/	-1.4
O=C(CSc1ncnc2c1cnn2CCO)Nc1cccc(C(F)(F)F)c1	-2%	-39	-2	4	-1.4

(list continues)
SMILES	Mtb H37Rv	YopH inh	Mtb bLac sens	Arbovirus anti	RecA intein inh	others
Cc1ccc(CNC(=O)C(=O)NCC2OCCCN2S(=O)(=O)c2ccc(F)cc2)cc1 (stereo not given)	/	/	-2	/	-0.7
CC1CC(C)CN(CCCNC(=O)CN2C(=O)c3cccnc3Oc3ccc(Cl)cc32)C1 (stereo not given)	/	/	?	/	-6.9
CSc1ccccc1OCc1cc(C(=O)NCCCn2nc(C)cc2C)no1	/	/	3	/	3.8
COc1ccc(-c2nc(C#N)c(NCCN(C)C)o2)cc1	-3%	-19	1	2	-0.6	Arbovirus anti repeat=3
CCOC(=O)C1C(=O)C=C(c2ccc(C)cc2)CC1c1ccccc1 (stereo not given)	6%	/	-10	6	-0.3
COc1cc(OC)c(OC)cc1/C=N/NC(=O)c1cccc(S(=O)(=O)N2CCOCC2)c1	-3%	/	-10	8	-2.8
O=S(=O)(Nc1nc2ccccc2nc1NCc1ccco1)c1ccc(F)cc1	3%	/	-4	/	1.1

An excerpt (hit frequency here may not be typical).
